# Compound activity as filed in PubChem BioAssay.
# PAFAH1B2 FP inh = inhibitors of human PAFAH1B2; recombinant PAFAH1B2, FP-rhodamine activity probe, fluorescence polarization; P68402; inhibition, % at 3.39 µM; actives 1.2% (n = 340,000);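 active means inhibition above the mean of all tested compounds plus 3 SD, cut at about 24% in these data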;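 further: 0% = enzyme with DMSO and 100% = wells lacking PAFAH1B2; many of its hits are not listed in these tables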
# Fam108B inh = Fam108B inhibition, counter-screen for RBBP9 inhibitors | recombinant Fam108B, FP-Rh probe fluorescence polarization | inhibition, % at 9.51 µM | actives 0.33% (n = 300,000) | AID 1947;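 active means inhibition above the screen mean inhibition plus 3 SD, computed separately per campaign, cut at about 18% in these data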;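 further: inhibitors lower polarization as less probe binds the enzyme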
# pPAFAH FP inh = inhibitors of human plasma PAF acetylhydrolase (pPAFAH); recombinant pPAFAH, FP-rhodamine probe fluorescence polarization; inhibition, % at 3.39 µM; actives 1.5% (n = 330,000); AID 463082;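 active means inhibition above the mean inhibition across the screen plus 3 SD, cut at about 25% in these data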;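 further: inhibitors block binding of the rhodamine activity-based probe so polarization drops; 0% = enzyme with DMSO and 100% = wells lacking pPAFAH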
# Target sequence (Q13093 whole entry, looked up): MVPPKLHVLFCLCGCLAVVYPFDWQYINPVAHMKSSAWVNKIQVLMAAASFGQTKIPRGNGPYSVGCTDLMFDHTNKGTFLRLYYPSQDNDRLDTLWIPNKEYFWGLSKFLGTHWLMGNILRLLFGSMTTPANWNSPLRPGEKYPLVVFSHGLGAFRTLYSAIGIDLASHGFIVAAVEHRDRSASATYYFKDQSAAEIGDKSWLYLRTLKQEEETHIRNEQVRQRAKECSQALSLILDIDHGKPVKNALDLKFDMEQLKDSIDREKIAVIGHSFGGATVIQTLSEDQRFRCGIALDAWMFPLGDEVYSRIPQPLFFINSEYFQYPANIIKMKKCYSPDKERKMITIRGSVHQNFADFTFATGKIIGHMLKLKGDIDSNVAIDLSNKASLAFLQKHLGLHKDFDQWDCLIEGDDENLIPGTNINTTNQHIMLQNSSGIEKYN
# MEX-5 binding = C. elegans MEX-5 TCR-2 RNA binding activity; Q9XUB2; MEX-5/FITC-TCR2 RNA binding, fluorescence polarization; hits give low values; activity score (negative = inhibition of binding), % at 10 µM; actives 0.38% (n = 300,000);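 active means inhibition past about -25% in most replicates, and total fluorescence under double the plate's negative control median, limit read from the data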;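 further: 0% = DMSO and -100% = 5 µM competing unlabeled TCR2 RNA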
# MCL1-BIM inh = inhibitors of human MCL1 binding to BIM-BH3 peptide; Q07820; GST-MCL1 / FITC-Bim-BH3 fluorescence polarization; inhibition, % at 10.9 µM; actives 0.68% (n = 320,000); AID 2057;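 active means inhibition above the mean inhibition of all tested compounds plus 3 SD, set per campaign, cut at about 40% in these data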;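 further: 0% = DMSO wells and 100% = unlabeled Bim-BH3 peptide control; higher means more loss of mP so more displacement of Bim peptide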
# GLD-1 RNA inh = GLD-1-TGE RNA interaction inhibition (C. elegans). Q17339. purified GLD-1 + fluorescein TGE RNA, fluorescence polarization. inhibition, % at 5.96 µM. actives 0.44% (n = 320,000). AID 2280;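 active means percent inhibition above a per-plate cutoff, the plate mean of test compounds plus 3 SD, cut at about 30% in these data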;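 further: 0% = DMSO wells with GLD-1 and probe and 100% = wells lacking GLD-1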
# Bcl-xL primary = inhibitors of human Bcl-xL | Q07817 | GST-Bcl-xL / FITC-Bim BH3 peptide fluorescence polarization | inhibition, % at 10.9 µM | actives 0.7% (n = 320,000);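 active means inhibition above the mean of all tested compounds plus 3 SD, cutoff set per campaign, cut at about 30% in these data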;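 further: 0% = DMSO wells and 100% = unlabeled Bim-BH3 peptide competitor; inhibitors lower millipolarization by displacing the labeled peptide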
# AHR activator = human AHR activation; P35869; AHR-responsive luciferase reporter cells, luminescence; activation, % at 5 µM; actives 2.5% (n = 320,000); in the data active means activation above about 47%;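 further: 0% = vehicle wells and 100% = reference agonist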
# Active calls of the source: *; x = not tested or not shown. Not all compounds are listed; rates above refer to the full screens.
SMILES,PAFAH1B2 FP inh,Fam108B inh,pPAFAH FP inh,MEX-5 binding,MCL1-BIM inh,GLD-1 RNA inh,Bcl-xL primary,AHR activator
COc1cc(S(=O)(=O)NCCOC23CC4CC(CC(C4)C2)C3)c(OC)cc1Cl,7,-2,-1,-1.7,-9,6,0,-2
O=[N+]([O-])CC(=Nc1ccc(F)cc1)N/N=C\c1oc(O)c2ccccc12,x,7,19,-5.5,12,2,12,54*
COc1ccc(S(=O)(=O)N2CCN(C(=O)[C@@H]3CCC(=O)N3C3OC(=O)c4ccccc43)CC2)cc1 (some centres not stated),33*,-1,0,-1.2,-3,4,2,7
CC1CCN(S(=O)(=O)c2cn(CC(=O)Nc3ccc(C#N)cc3)cn2)CC1,0,0,3,-4.4,3,-6,6,0
CC(CCc1ccco1)NC(=O)c1cc2c(-c3ccccc3F)nn(C)c2s1 (configuration not stated),3,-13,-11,-1.6,8,7,2,16
Fc1ccc(/C=C2\CCCC3=C2Nc2ncnn2C3c2ccc(F)cc2)cc1 (configuration not stated),-2,0,11,2.0,-7,0,-4,-2
COc1ccccc1-c1nnc(SC(C(=O)c2c[nH]c3ccccc23)c2ccccc2)n1C (configuration not stated),4,-15,7,1.5,-4,6,0,6
CCn1c2ccccc2c2nnc(SCCCn3c(=O)[nH]c4ccccc43)nc21,4,1,0,x,5,5,5,11
CCCNc1c(NS(=O)(=O)c2ccc3c(c2)CCCC3)c(=O)oc2ccccc12,-1,-5,9,-4.9,14,4,4,0
Cc1ccc(NC(=O)Nc2cc(-c3ccccc3)nn2C)cc1Cl,10,-15,4,7.2,-5,3,-1,0

# At a glance, eight of the compounds above:
SMILES,PAFAH1B2 FP inh,Fam108B inh,pPAFAH FP inh,MEX-5 binding,MCL1-BIM inh,GLD-1 RNA inh,Bcl-xL primary,AHR activator
COc1cc(S(=O)(=O)NCCOC23CC4CC(CC(C4)C2)C3)c(OC)cc1Cl,7,-2,-1,-1.7,-9,6,0,-2
O=[N+]([O-])CC(=Nc1ccc(F)cc1)N/N=C\c1oc(O)c2ccccc12,x,7,19,-5.5,12,2,12,54*
COc1ccc(S(=O)(=O)N2CCN(C(=O)[C@@H]3CCC(=O)N3C3OC(=O)c4ccccc43)CC2)cc1 (some centres not stated),33*,-1,0,-1.2,-3,4,2,7
CC1CCN(S(=O)(=O)c2cn(CC(=O)Nc3ccc(C#N)cc3)cn2)CC1,0,0,3,-4.4,3,-6,6,0
CC(CCc1ccco1)NC(=O)c1cc2c(-c3ccccc3F)nn(C)c2s1 (configuration not stated),3,-13,-11,-1.6,8,7,2,16
Fc1ccc(/C=C2\CCCC3=C2Nc2ncnn2C3c2ccc(F)cc2)cc1 (configuration not stated),-2,0,11,2.0,-7,0,-4,-2
COc1ccccc1-c1nnc(SC(C(=O)c2c[nH]c3ccccc23)c2ccccc2)n1C (configuration not stated),4,-15,7,1.5,-4,6,0,6
CCn1c2ccccc2c2nnc(SCCCn3c(=O)[nH]c4ccccc43)nc21,4,1,0,x,5,5,5,11
